From PubChem
VDR inhibitor: vitamin D3 receptor (human) inhibition | VDR-SRC2-3 peptide fluorescence polarization, 2 h | AID 504847 | 400,000 compounds, 0.93% hits | Potency, µM, without a hit: max response, negative = inhibition, actives largely listed as inhibitors; active means well fitted inhibition curve with a large enough effect; inconclusive means small, poorly fitted or top-dose-only effect, or another doubt; inactive means no such curve, though single readings can be large or run the other way; further: series mostly up to about 120 µM
Target sequence (P11473 whole entry, looked up): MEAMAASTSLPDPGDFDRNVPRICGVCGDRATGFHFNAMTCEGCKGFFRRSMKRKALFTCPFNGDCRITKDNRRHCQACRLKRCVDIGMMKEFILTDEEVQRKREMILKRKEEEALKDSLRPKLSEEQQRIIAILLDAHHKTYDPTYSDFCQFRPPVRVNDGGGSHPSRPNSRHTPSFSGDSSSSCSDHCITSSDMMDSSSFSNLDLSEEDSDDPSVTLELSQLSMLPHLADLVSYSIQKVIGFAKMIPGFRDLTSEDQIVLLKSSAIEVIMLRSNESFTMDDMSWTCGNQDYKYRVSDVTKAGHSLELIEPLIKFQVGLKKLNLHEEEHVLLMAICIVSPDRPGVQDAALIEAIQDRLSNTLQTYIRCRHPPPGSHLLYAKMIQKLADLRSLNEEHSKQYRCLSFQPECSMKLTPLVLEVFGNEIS
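Fluorescence polarization assay of small-molecule disruption of VDR binding to coregulator peptide SRC2-3. Compounds and controls pin-transferred, then read after 2 h incubation at ambient room temperature.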
Starred values were filed as active, the others as inactive; ? = inconclusive; & = joins results of further samples; ! = a repeat was not active; [ ] = another dose, or the depositor's remark. On the % scale 0 is the no-effect control and ±100 the full control effect; potency means the concentration at half of the fitted maximal effect. These rows are one share of the data; count on the stated rates, not on these rows.

SMILES	VDR inhibitor
CC(=O)OC1CC2C(C)(C)C(=O)C=C[C@]2(C)C2CC[C@]3(C)C(=CC(=O)OC3c3ccoc3)[C@]12C (some centres not stated)	20µM*
O=c1[nH]c(=S)n(-c2ccccc2F)c(O)c1C=Nc1ccc(N2CCOCC2)cc1	-2%
COC(=O)Nc1nc2ccccc2[nH]1	-25%
CC12CCCCC1=[N+]([O-])CN2O (configuration not stated)	23%
COC(=O)C1=C(c2cccc(C#N)c2)C[C@@H]2CC[C@H]1N2C(=O)NC1Cc2ccccc2C1	1%
CC1CCN(CCc2nc3ccccc3[nH]2)CC1	-8%
CCCCCCn1c(O)c(C=NC2CCN(Cc3ccccc3)CC2)c(=O)[nH]c1=O	-3%
CCOP(=O)(OCC)C(NC(=O)c1ccc(C)cc1)=C(Cl)Cl	-10%
C[C@]12CCC3C(CC[C@H]4C[C@H](O)CC[C@]34C)C1C[C@H](O)[C@@H]2O (some centres not stated)	-4%
C=CCn1c(O)c(C(C)=NCc2ccc3c(c2)OCO3)c(=O)[nH]c1=O	-12%
Cn1c(O)c(C=Nc2ccccc2Sc2ccccc2)c(=O)n(C)c1=O	-3%
COC(=O)CCCC(NC(=S)N1CC2C[C@@H](C1)Cn1c2cccc1=O)C(=O)OC (some centres not stated)	4%
O=C1CC(N2CC=C(c3ccc(F)cc3)CC2)C(=O)N1c1ccc(F)cc1 (configuration not stated)	3%
CSc1ccc(C(c2c(O)c3ccccc3oc2=O)c2c(C)n(C)n(-c3ccccc3)c2=O)cc1 (configuration not stated)	-5%&16%
CC(C)CN1CCC2(CC1)CCN(C(=O)Oc1ccccc1)CC2	2%
Fc1ccc(CNCCc2ccccc2F)cc1	-15%
Cc1ccc(N2C(=O)/C(=C/N3CCN(C(=O)c4ccco4)CC3)C(=O)NC2=S)cc1C	-11%
CCOP(=O)(OCC)C(O)c1cccnc1 (configuration not stated)	5%
C[C@]12CCC(=O)C=C1CCC1C2CC[C@@]2(C)C1CC[C@]2(C)O (some centres not stated)	-11%
c1cc(CN2CCCC3(CCNCC3)C2)ccn1	?

At a glance, 2 of the compounds above.
SMILES	VDR inhibitor
CC(=O)OC1CC2C(C)(C)C(=O)C=C[C@]2(C)C2CC[C@]3(C)C(=CC(=O)OC3c3ccoc3)[C@]12C (some centres not stated)	20µM*
O=c1[nH]c(=S)n(-c2ccccc2F)c(O)c1C=Nc1ccc(N2CCOCC2)cc1	-2%

Continued:
SMILES	VDR inhibitor
O=S(=O)(c1ccc(Cl)cc1)N1CCCC1c1cccnc1 (configuration not stated)	2%
Cn1c(=O)c2c(nc(-c3ccc(N(CCCl)CCCl)cc3)n2C)n(C)c1=O	-7%
CCN1CCN(c2cc(N3CCCC3)c(F)cc2[N+](=O)[O-])CC1	-18%
CCOc1ccc(CN(CCc2ccc3c(c2)OCO3)Cc2cccc(C)c2)cc1	-5%
Cn1c(O)c(C(=NCCN2CCCCC2)c2ccccc2Cl)c(=O)n(C)c1=O	13%
O=c1[nH]c(O)c(N=Nc2cc([N+](=O)[O-])ccc2O)c(=O)[nH]1	17%
NCC(O)c1cc(O)c(O)cc1F (configuration not stated)	28µM*!
COC(=O)C1=C(c2cc3ccccc3o2)C[C@@H]2CC[C@H]1N2C(=O)NCCCOC(C)C	9%
Oc1cc(O)cc(/C=C/c2ccc(O)cc2O)c1	-16%
Cc1cc(C(=O)OCC(=O)Nc2c(F)cccc2F)c(C)n1C1CC1	-5%
Clc1ccc(CN2CCNCC2)cc1	-10%
COc1ccc(N2C(=O)C(=O)N(c3ccc(OC)cc3)P2(=O)N(CCCl)CCCl)cc1	13%
COc1ccccc1N1C(=O)NC(=O)/C(=C/c2ccc3c4c(cccc24)CC3)C1=O	50µM*
C=CCn1c(O)c(C(C)=NCCN2CCOCC2)c(=O)[nH]c1=O	2%
O=C(CN1CCCCC1)NCC(=O)Nc1ccc(Br)cc1C(=O)c1ccccc1	1%
NCC(CC(=O)O)c1ccc(Cl)s1 (configuration not stated)	4%
CN1c2ccc([N+](=O)[O-])cc2CC2(C(=O)NC(=O)N(c3ccc(Br)cc3)C2=O)C1c1ccccc1 (configuration not stated)	-21%
O=C(c1ccc2c(=O)n(Cc3ccc4c(c3)OCO4)c(=S)[nH]c2c1)N1CCC2(CC1)OCCO2	-8%
Nc1ncnc2c1ccn2[C@@H]1O[C@H](CO)[C@@H](O)[C@H]1O	12%&-3%
Cc1ccc(-c2cc(-c3ccccc3)cc(-c3ccccc3)[n+]2-c2ccc(C(=O)O)cc2)cc1	10%

A draw from above in order of length of the SMILES, largest number first.
SMILES	VDR inhibitor
O=C(c1ccc2c(=O)n(Cc3ccc4c(c3)OCO4)c(=S)[nH]c2c1)N1CCC2(CC1)OCCO2	-8%
COC(=O)C1=C(c2cc3ccccc3o2)C[C@@H]2CC[C@H]1N2C(=O)NCCCOC(C)C	9%
COc1ccc(N2C(=O)C(=O)N(c3ccc(OC)cc3)P2(=O)N(CCCl)CCCl)cc1	13%
O=c1[nH]c(O)c(N=Nc2cc([N+](=O)[O-])ccc2O)c(=O)[nH]1	17%
Cn1c(O)c(C(=NCCN2CCCCC2)c2ccccc2Cl)c(=O)n(C)c1=O	13%
Nc1ncnc2c1ccn2[C@@H]1O[C@H](CO)[C@@H](O)[C@H]1O	12%&-3%
CCOc1ccc(CN(CCc2ccc3c(c2)OCO3)Cc2cccc(C)c2)cc1	-5%

(list continues)
SMILES	VDR inhibitor
CNC(=O)N(C)c1nnc(C(C)(C)C)s1	-3%
CC(C)c1cc2c(c(O)c1O)[C@@]1(C(=O)O)CCCC(C)(C)[C@@H]1CC2	20µM*
COc1ccc(C(=O)NC(=S)N2C[C@H]3C[C@H](C2)c2cccc(=O)n2C3)cc1OC	5%
CCCCOCCCn1c(N)c(C(=O)OCCOC)c2nc3ccccc3nc21	-18%
CCOC(=O)C1(c2ccccc2)CCN(CC(O)c2ccc(NC(C)=O)cc2)CC1 (configuration not stated)	-2%
COC(=O)[C@]1(C)C[C@H]1[C@H](NP(=O)(c1ccccc1)c1ccccc1)c1ccccc1	-11%
c1ccc(-c2ccc(C(c3ccccc3)n3ccnc3)cc2)cc1 (configuration not stated)	?
Cc1ccc(-n2c(/C=C/c3cccc4ccccc34)nc3ccccc3c2=O)cc1	1%
O=C(c1cn(Cc2ccccc2)c2ccccc12)C1CC1	?
O=c1[nH]c(=O)n(-c2cccc3ccccc23)c(O)c1/C=N/N1CCCCC1c1cccnc1 (configuration not stated)	-7%
CN(CCC(N)CC(=O)NC1C=CC(n2ccc(N)nc2=O)OC1C(=O)O)C(=N)N (configuration not stated)	3%
Cc1ccc(C)c(NC2=NCCCS2)c1	0%
CCCCCCNc1nc(OC)nc(N2CC3CC(C2)c2cccc(=O)n2C3)n1 (configuration not stated)	2%
CC(=O)OC[C@]12C[C@H](OC(=O)CC(C)C)C(C)=C[C@H]1O[C@H]1[C@H](O)[C@@H](OC(C)=O)[C@@]2(C)[C@]12CO2	-6%
CCOP(=S)(OCC)O/N=C(\C#N)c1ccccc1Cl	22µM*
CN1CC(C(=O)c2ccc(Cl)cc2)C(c2ccccc2)C1 (configuration not stated)	-5%
COc1ccccc1-n1c(O)c(C=NCCN2CCNCC2)c(=O)[nH]c1=O	7%
Cc1ccc2c(c1)C1CN(C)CCC1N2C(=O)Nc1cccc(Cl)c1 (configuration not stated)	-7%
CC(=O)C1CC[C@H]2C3CC[C@@H]4CC(O)CC[C@@]4(C)C3CC[C@]12C (some centres not stated)	-17%
O=C(c1ccccc1)C(CN1CCCC1)c1ccccc1 (configuration not stated)	?
COc1ccc(CN2CCN(C(=O)COc3cccc(C)c3)CC2)c(OC)c1	-17%
COc1ccc(OCC(=O)N2CCN(Cc3ccc4c(c3)OCO4)CC2)cc1	40%[activator]
Oc1cc(O)c2c(c1)OC(c1cc(O)c(O)c(O)c1)C(O)C2 (configuration not stated)	?
CCOP(=O)(OCC)C(NC(=O)c1ccccc1)C(Cl)(Cl)Cl (configuration not stated)	-4%
N#Cc1c(N2CCNCC2)nc(-c2ccco2)c2c1CCCC2	-26%
N/C(=N\[N+](=O)[O-])N1CCN(C(=O)c2ccccc2)CC1	6%
Clc1ccc(OCC#CCN2CCCC2)cc1	8%
CSc1ncc(CN2CCCC(C(=O)c3ccccc3SC)C2)cn1 (configuration not stated)	-8%
Cc1ccc(C(O)(C(=O)NNC(=O)CN2CCN(C)CC2)c2ccc(C)cc2)cc1	4%
COC(=O)C1=C(c2c(C)noc2C)C[C@@H]2CC[C@H]1N2C(=O)NCC1CC1	-8%
CC(C)(C)NC(=O)NC(=O)CN1CC=C(c2ccccc2)CC1	-6%
CCC(=NCCCN1CCOCC1)c1c(O)n(-c2ccccc2C)c(=O)[nH]c1=O	-21%
CCOP(=O)(C1=C(O)C(=O)C(C(C)(C)C)=CC1=O)c1ccccc1 (configuration not stated)	?
Oc1ccc(CC2CC3CCN2CC3)cc1O (configuration not stated)	-2%
Cn1cc(C(=O)OCC(=O)NC2CCCC2)c2ccccc21	-14%
COc1ccc(/C=N\N=C(N)N)cc1	16%
COc1ccc(CCn2c(O)c(C=NCCCn3ccnc3)c(=O)[nH]c2=O)cc1OC	-10%
Cc1ccc2nc(N3CCN(C)CC3)[nH]c2c1	6%
COc1ccc2c3c1O[C@H]1C[C@@H](O)C=C[C@@]31CCN(C)C2	?
CCCNC(=O)N1CCC2(CC1)OCCO2	1%
COC1C(OC(=O)c2ccc(C)[nH]2)C(O)C(Oc2ccc3c(O)c(NC(=O)c4ccc(O)c(CC=C(C)C)c4)c(=O)oc3c2Cl)OC1(C)C (configuration not stated)	10%
Cn1c(O)c(Cc2ccc(OCc3ccccc3)cc2)c(=O)n(C)c1=O	-17%
COC(=O)C1=C(c2ccc(OC)c(OC)c2)C[C@@H]2CC[C@H]1N2C(=O)NC1CC1	3%
Nc1ncnc2c1ncn2[C@@H]1O[C@@H]2CO[P@](=O)(S)O[C@H]2[C@H]1O	-2%
O=C1OC(c2ccc([N+](=O)[O-])cc2)=N/C1=C/N1CC2CC(C1)c1cccc(=O)n1C2 (configuration not stated)	-5%
CC(=O)Nc1nc(CCl)cs1	-7%
CO[C@H]1CC=C2CCN3CCC4=C(CC(=O)OC4)[C@]23C1	-1%&3%&-1%&3%
Cn1cc(/C=C(\C(=O)O)C(C(=O)O)=C2CCCCC2)c2ccccc21	?
CC1=NOC2(C)Nc3ncnn3C(c3ccccc3)C12 (configuration not stated)	-1%
Cc1ccc(-c2nn(Cc3ccccc3)cc2C(=O)O)cc1	-2%
Cc1cccc(Cn2cccc(C(=O)Nc3cc(C)on3)c2=O)c1	9%
Cc1ccc(-c2nc3ccc(Cl)cc3n2OC(=O)N(C)C)cc1	11%
O=C(c1ccc(Cl)cc1)C1CCCN(Cc2ccc3c(c2)OCCO3)C1 (configuration not stated)	-11%
COC(=O)C1=C(c2ccc(F)cc2OCc2ccccc2)C[C@@H]2CC[C@H]1N2C(=O)N1CCC(O)CC1	-8%
O=C(O)[C@@H]1CCN1	-10%
COc1cc(-n2c(=S)[nH]c3ccccc3c2=O)c(Cl)cc1Cl	-5%
CC(Cc1ccc(OCC(=O)O)cc1)NCC(O)c1cccc(Cl)c1 (configuration not stated)	8%&2%
Clc1ccc(C(Cn2ccnc2)OCc2csc3c(Cl)cccc23)c(Cl)c1 (configuration not stated)	0%
Cc1cccc(C)c1OP(N)(=O)OCC(F)(F)F (configuration not stated)	-6%
C=C1C(O)C2OC3(CCC(/C=C/C(C)C4CC(C)=CC5(OC(CC(C)(O)C(=O)O)CCC5O)O4)O3)CCC2OC1C(O)CC(C)C1OC2(CCCCO2)CCC1C (configuration not stated)	13%

Retrieved by structure from above:
SMILES	VDR inhibitor
Cc1ccc(-c2nc3ccc(Cl)cc3n2OC(=O)N(C)C)cc1	11%
CC1=NOC2(C)Nc3ncnn3C(c3ccccc3)C12 (configuration not stated)	-1%
COc1cc(-n2c(=S)[nH]c3ccccc3c2=O)c(Cl)cc1Cl	-5%

The results go on.
SMILES	VDR inhibitor
CC1(C)CN=C(Nc2nc3ccccc3s2)S1	-8%
COC(=O)C1=Nc2ccccc2/C1=C\c1c(O)n(C)c(=O)n(C)c1=O	?
COCCCNP1(=O)OCC(C)([N+](=O)[O-])CO1 (configuration not stated)	-1%
Cc1ccc(C2(O)CC(C)N(C)CC2C)cc1 (configuration not stated)	16%
O=C(CN1CC=C(c2ccccc2)CC1)NC(=O)NCc1ccco1	2%
CCOc1ccc(CC2(CCc3ccncc3)C(=O)NC(=O)NC2=O)cc1	2%
O=C(O)C(O)(c1ccccc1)C1CCCCC1 (configuration not stated)	-8%
CCCCn1c(=O)c(C(=O)NC(C)c2ccccc2)c(O)c2ccccc21 (configuration not stated)	-10%
CC(C(=O)c1ccc2ccccc2c1)N1CCCCC1 (configuration not stated)	-13%
C[N+]1(C)CCC(OC(=O)C(c2ccccc2)c2ccccc2)CC1	0%&10%&2%
CN1/C(=C\C=Nc2ccccc2)C(C)(C)c2ccccc21	11%
CCCCCCCCCCCCN=C(N)N	6%
C/C(=N\NC(=O)c1ccccc1Cl)c1c(O)n(C2CCCCC2)c(=O)[nH]c1=O	-8%
CCOc1c(Cl)cc(CNCCc2c[nH]c3ccccc23)cc1OC	2%
N#Cc1ccc(OCC(=O)N2CCN(Cc3ccc4c(c3)OCO4)CC2)cc1	-13%
Cn1c(O)c(C=NCCCNC2CCCCC2)c(=O)n(C)c1=O	-9%
COC(=O)C1=C(c2ccccc2OCc2ccccc2)C[C@@H]2CC[C@H]1N2C(=O)NCCOc1ccccc1Cl	-30%
CCc1ccc(N2C(=O)NC(=O)/C(=C\c3cccn3CCOc3ccc(C(C)C)cc3)C2=O)cc1	?
CC1CN(CC(=O)c2ccccc2Cl)CC(C)O1 (configuration not stated)	?

Of the compounds above, four have a cyano group.
SMILES	VDR inhibitor
COC(=O)C1=C(c2cccc(C#N)c2)C[C@@H]2CC[C@H]1N2C(=O)NC1Cc2ccccc2C1	1%
CCOP(=S)(OCC)O/N=C(\C#N)c1ccccc1Cl	22µM*
N#Cc1c(N2CCNCC2)nc(-c2ccco2)c2c1CCCC2	-26%
N#Cc1ccc(OCC(=O)N2CCN(Cc3ccc4c(c3)OCO4)CC2)cc1	-13%
